# Screens: PubChem BioAssay, several laboratories
# Mtb hypoxia inh = PubChem AID 1159583; actives 0.1% (n = 300,000); M. tuberculosis hypoxia-regulated fluorescent reporter, fluorescence; fluorescence inhibition, % (concentration not given with the values);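 active means 35 to 45% if threefold the growth effect, above 45% if 1.5-fold the growth effect; inactive means the rest, general growth blockers included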;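 further: wells of about 50 µL received 100 nL stock; 0% = vehicle wells and 100% = reference inhibitor wells; whole bacteria with a GFP reporter of the hypoxia response; strong numbers were not always called active; many hits fall short of the cut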
# Sa ugtP lethal = growth inhibition of ugtP-null S. aureus, primary screen, RN4220 ugtP deletion, OD600; 16 h; some inactives read as strong as hits; growth inhibition, % (no concentration beside the values); actives 0.54% (n = 330,000);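 active means z-score under -3 and OD600 up to 0.15 on both plates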;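 further: plate controls were untreated wells for no effect and antibiotic for full effect; wells of about 80 µL received 100 nL stock; the first replicate is given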
# PrP 5UTR inh = inhibition of PrP 5' UTR reporter expression | cell-based PrP 5' UTR mRNA reporter, plate reader | inhibition, % (concentration not given with the values) | actives 0.35% (n = 340,000) | AID 488862, 2010;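 active means every replicate at 50% or more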;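 further: 0 = median of the neutral control wells; tested in H4 reporter cells; numbers are from one replicate; inactives centre near -14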
# Sa RN4220 lethal = growth inhibition of S. aureus RN4220, primary screen, OD600. AID 1259311, 2017. 16 h. actives 0.33% (n = 330,000). inhibition, % (test concentration not listed);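 active means z-score of -3 or lower and OD600 up to 0.18 on both plates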;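 further: plate controls were untreated cells for no effect and reference antibiotic for full effect; stock transfer was 100 nL into about 80 µL; one replicate is shown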
# Autofluor counter = compound fluorescence in toxin protease inhibitor counterscreen; compound autofluorescence counterscreen, microsphere flow cytometry; hits give high values; fluorescence intensity (no concentration beside the values); actives 3.1% (n = 360,000); AID 624483;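 active means at least 3 SD above the mean of all compounds, about 16000 in these data; inconclusive means too few beads counted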;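 further: 100 nL of 1 mM stock went into each well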
# BJeLR lethal = MLPCN primary cell-based screen for lethality selective to Ras in HRASV12 cells. BJeLR (HRASV12) viability, CellTiter-Glo ATP luminescence, 48 h; reference of the scale not given here. inhibition, % (test concentration not listed). actives 0.17% (n = 300,000). AID 1554, 2009;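 active means replicate mean above 50%; inconclusive means above 50% but judged a plate artefact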;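 further: 50 nL library stock added to about 25 µL; numbers are from one replicate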
# Mtb hypoxia inh growth = recorded beside Mtb hypoxia inh, whose call it bears; growth inhibition, %; measured here: M. tuberculosis growth (absorbance);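 0% = vehicle and 100% = reference antibiotic; read after six days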
# An asterisk follows results filed as active; ? = inconclusive; . = no result given. Outcome played no part in choosing rows; 4% or so of the library scored in one or more.
SMILES	Mtb hypoxia inh	Mtb hypoxia inh growth	Sa ugtP lethal	PrP 5UTR inh	Sa RN4220 lethal	Autofluor counter	BJeLR lethal
O=C(c1cccn2c(=O)c3cc(Br)ccc3nc12)N1CCC2(CC1)OCCO2	0	-3	5	-15	0.9	9115	9
O=[N+]([O-])c1ccc(N2CCNCC2)cc1Sc1nc2ccccc2[nH]1	-4	4	6	-27	0.9	2294	14
Cc1cc(CNC(=O)Cn2nc(C)c([N+](=O)[O-])c2C)c2ccccc2n1	-1	-4	2	-29	-0.6	4676	11
COc1ccccc1N1CCN(C(=O)NCc2ccc(Cl)cc2)CC1	-5	10	7	-16	-0.3	3679	-7
CCCN(CC(=O)Nc1ccccc1C)C(=O)c1oc2ccc(OCC)cc2c1C	1	-3	18	-16	1.6	5679	3
O=C(NC1CC2CCCC(C1)N2C(=O)N1CCCCC1)C1CCCCC1 (centres undefined)	3	1	3	-20	4.2	3957	0
Nc1cnn(C2OC(CO)C(O)C2O)c(=O)n1 (centres undefined)	.	.	.	-3	.	3521	-5
CCn1cc(S(=O)(=O)NCc2ccccc2Br)cn1	2	-1	2	-12	1.2	5600	-1
COc1cccc(-c2ccc(C#N)c(OC(=O)c3ccc(Cl)cc3)n2)c1	5	6	-1	-9	3.0	3001	-5
CCOC(=O)c1c(NC(=O)CN2C(=O)c3ccccc3C2=O)sc(Cc2ccc3c(c2)OCO3)c1C	3	4	-3	-31	2.4	5066	9
O=C(COC(=O)CNC(=O)c1ccco1)Nc1ccc(F)cc1	9	5	3	-14	2.0	3556	.
CCC1CN1P(=O)(N1CCCC1)N1CC1CC (centres undefined)	9	10	1	-30	3.0	3562	.
Cc1ccc(C(=O)Nc2cccc3cccnc23)cc1Br	17	8	2	.	7.7	6143	-5
CCOc1ccc2ccccc2c1C=NNC(=O)c1cc(C)[nH]n1	2	0	0	.	0.5	.	.
COc1cccc(CC2CC(=O)N(c3ccc4c(C)cc(=O)oc4c3)C2=O)c1 (centres undefined)	-5	-5	2	-10	2.1	3989	2
O=C(Nc1ccc(Cl)cc1)Nc1nnc(Cc2ccc([N+](=O)[O-])cc2)s1	11	-1	0	-23	0.8	2138	-3
CCCCC1=CC2=CC(=O)C(C)(OC(=O)CC)C(=O)C2=CN1CCc1c[nH]c2ccccc12 (centres undefined)	6	10	-15	-12	3.4	2819	-1
CCOC(=O)N1CCC(N2Cc3cccc(C(=O)Nc4ccc(N(CC)CC)cc4C)c3C2=O)CC1	3	11	5	-17	2.9	5495	3
COc1ccc(S(=O)(=O)NC(CC(=O)NCc2ccccc2OC)c2ccco2)cc1 (centres undefined)	.	.	6	-18	-0.7	2601	4
Cc1oc(-c2cccs2)nc1CN1CCN(C2CCCC2)C(CCO)C1 (centres undefined)	9	3	4	-22	10	4164	-20
COc1ccc(C2=CCC3CCCCN3C2)cc1OC (centres undefined)	11	4	2	-4	4.0	3850	.
C/C(=N\NC(=O)CSc1nc2ccccc2c(=O)n1-c1ccccc1C)c1cccs1	.	.	.	-9	.	7820	-13
Nc1cc(S(=O)(=O)N2CCOCC2)ccc1Oc1ccc(F)cc1	-8	-9	3	-1	8.3	3229	4
Cc1c(C#N)c2ccccc2n1CC(=O)NCc1cccnc1	-6	1	2	-5	1.4	4698	-2
Cn1cccc1/C=C1\SC(=O)N(CC(=O)Nc2ccc(F)cc2)C1=O	7	2	-2	0	-3.9	4480	4
COc1ccc(S(=O)(=O)N(C)CC(=O)Nc2ccccc2OC)cc1	14	1	1	-5	3.1	11213	10
O=C1C=C(NCc2ccc(Cl)cc2)CC(c2ccco2)C1 (centres undefined)	9	15	-7	-5	0.7	4074	3
Cc1noc(NC(=O)c2ccc(Cl)cc2)c1Cl	2	-3	5	-3	6.8	4048	-2
CC(C)CNC(=O)CN1C(=O)NC(Cc2c[nH]c3ccccc23)C1=O (centres undefined)	15	16	5	-15	2.8	4471	2
O=C(O)C1CCC1C(=O)Nc1nc(-c2ccc(Cl)s2)cs1 (centres undefined)	2	-1	14	-8	1.0	4427	-10

# The list continues.
SMILES	Mtb hypoxia inh	Mtb hypoxia inh growth	Sa ugtP lethal	PrP 5UTR inh	Sa RN4220 lethal	Autofluor counter	BJeLR lethal
CCOc1ncccc1C(=O)Nc1ccc(S(=O)(=O)Nc2nc(C)cc(C)n2)cc1	10	12	3	-14	2.1	3827	.
C/C(N)=C(/C#N)C(=O)CSc1cc(C)c2cc(C)cc(C)c2n1	-13	5	-6	-17	-1.0	4196	-2
COCCSc1nnc(NC(=O)C2CCCO2)s1 (centres undefined)	10	4	2	-14	5.3	10241	0
Cc1ccc(C)c(-n2c(-c3csc(C)c3C)n[nH]c2=S)c1	7	10	35	-7	-4.2	2114	-1
CCN(CC(=O)N1CCCCC1)S(=O)(=O)c1ccccc1	15	0	2	-13	1.7	6451	-9
Cc1cc(OCc2cccc(Cl)c2)c(C)cc1CN1CCOCC1	-3	-9	0	-28	-7.8	4900	-7
Cc1ccc(S(=O)(=O)N2CCCCC2CCNC(=O)C(=O)NCCc2ccco2)cc1 (centres undefined)	-9	5	7	-26	-0.2	5084	22
CCCCNC(=O)C1CC1C(O)C(CO)NC(=O)C(COCc1ccccc1)NC(=O)OC(C)(C)C (centres undefined)	19	6	7	.	6.9	.	.
COc1ccc(C(C(=O)NC2CCCCC2)N(CC2CCCO2)C(=O)CNC(=O)c2ccco2)cc1 (centres undefined)	.	.	5	-32	1.1	4042	-12
CC1(C(=O)NC2CCCCC2)CCC(=O)N1Cc1cccnc1 (centres undefined)	-13	4	-17	-12	7.9	3990	.
O=C1OCCN1P(=O)(c1ccccc1)c1ccccc1	.	.	-4	-6	0.9	5316	-4
CC(=O)/C=C(\C)Nc1c(C)n(C)n(-c2ccccc2)c1=O	10	7	6	-12	2.3	4245	-3
COCc1nnc(NC(=O)CCC2CCCCC2)s1	3	2	5	-5	2.7	11153	-2
Cc1ccc(OCC(=O)NN=Cc2ccc(O)c([N+](=O)[O-])c2)c([N+](=O)[O-])c1	-21	-7	-11	.	2.7	.	.
O=C(Oc1nsnc1N1CCOCC1)N1CCCCC1	.	.	0	-10	1.9	13020	9
COc1ccccc1OCCCC(=O)Nc1ccc2c(c1)OCCO2	-6	5	1	5	0.0	6370	-3
Cc1ccc(C)c(-c2nnc(NC(=O)COc3ccccc3)o2)c1	-7	-3	5	-25	19	.	3
CCOC(=O)N1CCN(c2nc3ccc(C(=O)c4ccccc4)cc3n3cnnc23)CC1	0	5	7	-13	-16	4118	2
Cc1ccc(S(=O)(=O)NCCc2ccncc2)cc1	2	12	1	-31	2.8	10152	9
CCc1nnc(NC(=O)COC(=O)c2cc(OC)cc(OC)c2)s1	6	2	-2	-4	1.6	4241	.
FC(F)(F)c1ccc(CN2CC3C(c4ccccc4)C4(c5cccnc5)CC3(C4)C2c2ccccc2)cc1 (centres undefined)	5	11	0	.	-5.5	.	.
COc1ccc(-c2[nH]ncc2CN(C)Cc2c(C)n[nH]c2C)c(OC)c1	11	5	4	-7	13	3835	8
CCc1ccc(OCC(O)CN2CCCC2)cc1 (centres undefined)	13	15	13	-9	0.4	3957	10
CC1=Nn2c(nnc2-c2cccs2)SC1	0	4	-3	-8	-6.9	?	4
COc1ccc(-c2cn(-c3ccc(C)cc3)c(=O)n2CC(=O)Nc2ccc(OC)cc2OC)cc1	-13	-1	-4	-26	2.1	?	-6
CCOc1ccc(Oc2ccc(C(F)(F)F)cc2N)cc1	5	0	56	-44	2.3	1938	4
O=C(COC(=O)c1ccc(S(=O)(=O)N2CCCC2)cc1)Nc1cccnc1Cl	0	1	1	-16	1.3	2430	3
COc1cc2[nH]c(=S)nc(NCc3cccs3)c2cc1OC	11	9	-9	-16	0.8	2424	.
CC1CCC/C(=N\NC(=O)Nc2ccccc2)C1 (centres undefined)	.	.	.	-24	.	2580	-1
COc1ccc(NC(=O)C(NC(=O)Cc2cccs2)c2ccccc2)cc1 (centres undefined)	1	-6	-10	-18	1.0	8764	4

# Next section.
SMILES	Mtb hypoxia inh	Mtb hypoxia inh growth	Sa ugtP lethal	PrP 5UTR inh	Sa RN4220 lethal	Autofluor counter	BJeLR lethal
CC(=O)Nc1ccc(OC(=O)c2cc3cc(Br)ccc3oc2=O)cc1	18	4	-3	13	8.0	2478	-2
COc1ccc(C)cc1S(=O)(=O)Nc1cccc(-c2ccc(N3CCCCCC3)nn2)c1	6	-3	7	-46	5.7	4258	6
CC1Cc2ccccc2N1C(=O)CSc1nnc2sc3ccccc3n12 (centres undefined)	-2	6	-6	5	-0.5	4200	-3
COCCNC(=O)c1ccc(NC(=O)C2(c3ccccc3)CCCC2)cc1	2	10	-9	-8	-1.2	4471	-1
CC1=CC(c2ccccc2)NC(=S)N1 (centres undefined)	-2	0	4	-17	-2.0	2221	-11
CC(=O)Nc1nnc(C)s1	4	12	-5	-14	-9.6	7317	3
CC1CCN(c2c(NCc3ccc(C(=O)NCCc4ccc(Cl)cc4)cc3)c(=O)c2=O)CC1	0	4	3	7	5.3	5961	-16
Cc1nnc(SCC(=O)N(C2CCCCC2)C2CCS(=O)(=O)C2)n1C (centres undefined)	5	3	4	-10	3.4	4032	.
CSCCC(NC(=O)c1ccco1)C(=O)NCCc1ccc(Cl)cc1 (centres undefined)	15	10	-2	-8	6.3	3761	.
Cn1cc(CN2CCN(c3ccc(Cl)cn3)CC2)c(-c2ccccc2F)n1	5	4	6	-13	0.1	3946	-2
Cc1ccccc1OCC(=O)Nc1nc2ccccc2[nH]1	4	2	4	-10	-0.7	3126	0
COC(=O)c1ccccc1NC(=O)CNC(=O)c1ccc(OC)cc1	6	11	4	-22	-0.8	4270	-7
Cc1ccc(S(=O)(=O)CCC(=O)OCC(=O)NC(=O)c2ccccc2)cc1	-9	0	-4	-1	-0.6	40297*	-7
CCOC(=O)CNC(=O)CSc1nnc(NC(=O)c2ccc3c(c2)OCO3)s1	7	3	5	-14	-1.8	5290	4
N#C/C(=C/c1cn(-c2ccccc2)nc1-c1cccc(S(=O)(=O)N2CCCC2)c1)C(=O)NCc1ccco1	-9	-9	-13	-22	9.1	10630	9
Cc1nn(C)c(Oc2ccccc2)c1CCNS(=O)(=O)c1ccc(F)cc1	15	2	-9	-41	7.1	10002	-1
CCOc1ccc(S(=O)(=O)N2CCN(CC)CC2)cc1NC(=O)c1ccccc1F	1	-5	1	-8	9.0	5758	-4
CC(=O)N1CCCN(Cc2nc(C3(c4ccc(C)cc4)CCCC3)no2)CC1	16	7	3	-27	2.7	3134	19
COc1ccccc1NC(=O)C1=C(C)Nc2nc(CCCO)nn2C1c1ccc2c(c1)OCO2 (centres undefined)	.	.	-7	41	-2.2	2696	-12
COC(=O)NC1CCS(=O)(=O)C1 (centres undefined)	7	3	6	-18	0.0	17672*	0
CC=C(C)C(=O)Nc1cccc(C2=NOC3(C2)CC(C(N)=O)N(C(=O)C(C)=CC)C3)c1 (centres undefined)	10	7	0	.	7.4	.	.
COc1ccc(CSc2nnnn2-c2ccc(C(=O)O)cc2)cc1	-2	-2	13	-7	2.5	3702	-2
COc1ccccc1C=c1sc2nc(-c3ccccc3OC)nn2c1=O	3	-3	-6	.	2.6	.	.
Brc1ccc2[nH]c3c(NCc4ccccn4)ncnc3c2c1	11	12	-3	.	0.4	6030	5

# Arranged by count of non-hydrogen atoms (rising): part of the list above.
SMILES	Mtb hypoxia inh	Mtb hypoxia inh growth	Sa ugtP lethal	PrP 5UTR inh	Sa RN4220 lethal	Autofluor counter	BJeLR lethal
Brc1ccc2[nH]c3c(NCc4ccccn4)ncnc3c2c1	11	12	-3	.	0.4	6030	5
COC(=O)c1ccccc1NC(=O)CNC(=O)c1ccc(OC)cc1	6	11	4	-22	-0.8	4270	-7
COc1ccccc1NC(=O)C1=C(C)Nc2nc(CCCO)nn2C1c1ccc2c(c1)OCO2 (centres undefined)	.	.	-7	41	-2.2	2696	-12
